# Methyltransferases: Primary Screen for Target Class Profiling of Small Molecule Inhibitors of Methyltransferases; purified enzyme, MTase-Glo SAH luminescence; stronger effect = lower value; calls only at 40 µM; 25,000 tested, 3.9% active; AID 1745853, 2022; active = -50% or lower on at least one of six enzymes; inconclusive = the cases between; inactive = as a rule above -30% on all six;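 further: enzymes were COMT GAMT GNMT HNMT NNMT and PNMT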
#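 Each enzyme was reacted with SAM and its substrate, with compounds tested once at 40 uM; SAH formed was read by MTase-Glo luminescence.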
# Calls only; i = inactive; ? = inconclusive; + = active, no number; ! = a repeat was not active. On the % scale 0 is the no-effect control and ±100 the full control effect.
SMILES,Methyltransferases
CC(C)c1cc(C(=O)N[C@@H]2COCC[C@@H]2Oc2cccc(F)c2)nc(N)n1,i
COc1ccc(-c2nnc3n(Cc4ccc(C)cc4)c(=O)c4ccccc4n23)c(OC)c1,i
CC(=O)OC(CSC1CCC(=O)OC(C)CCC(=O)C1)C(=O)O (centres undefined),i
COc1cccc(-c2ccc(CN3CCCC(N[S+](=O)([O-])c4ccc(C)cc4)C3)cc2)c1 (centres undefined),i
Cc1cc(C)c(NS(=O)(=O)c2cc3c(cc2Cl)n(C)c(=O)n3C)c(C)c1,i
C[C@@H](N)C(=O)N1CCC2(CC1)CC(=O)N(Cc1cc(F)cc(F)c1)C2,i
O=C1CCC(=O)N(O)CCCCCNC(=O)CCC(=O)N(O)CCOCCNC(=O)CCC(=O)N(O)CCCCCN1,i
CC(C)OCCCN1C(=O)c2ccc(-c3ccco3)n2CC1(C)C(=O)NC1CCCC1 (centres undefined),i
COc1ccc(C)cc1NS(=O)(=O)c1ccc2[nH]c3c(c2c1)CCCC3,i
COCCN1CCC(C(=O)N2CCn3nc(Cc4ccccc4)cc3C2)C1 (centres undefined),i
COc1ccc(S(=O)(=O)N2CCC(OCCOc3ccccc3)CC2)cc1,i
COc1ccc([C@H]2C[C@@H](O)[C@@H](O)[C@@H]2N2CCCCC2)cc1,i
CCCN1C(=O)c2c(C(=O)NCc3cccc(Br)c3)ncn2CC1(C)C(=O)NCc1ccccc1 (centres undefined),i
Cn1cc(CN2CCOC[C@H]2c2ncc(C(C)(C)C)[nH]2)c2ccccc21,i
CC(C)S(=O)(=O)c1ncc(CN(C)Cc2cnn(C)c2)n1CCc1ccccc1,i

# Rewritten bar-delimited: part of the list above.
mol | Methyltransferases
Cc1cc(C)c(NS(=O)(=O)c2cc3c(cc2Cl)n(C)c(=O)n3C)c(C)c1 | i
C[C@@H](N)C(=O)N1CCC2(CC1)CC(=O)N(Cc1cc(F)cc(F)c1)C2 | i

# (next part)
SMILES,Methyltransferases
CC(C)CNC(=O)C1CC(c2ccccc2F)=NO1 (centres undefined),i
NCC1OC(O[C@H]2[C@H](O)[C@@H](OC3C(O)C(N)CC(N)C3OC3OC(CO)C(O)C(O)C3N)O[C@@H]2CO)C(N)C(O)C1O (some centres undefined),i
NC(=O)c1ccc2c(c1)C1C=CCC1C(c1ccc(Cl)cc1)N2 (centres undefined),i
O=C(N[C@@H]1CN(C(=O)c2nccc3ccccc23)C[C@H]1CO)c1ccccc1,i
CSCC[C@H](NC(=O)[C@H](CO)NC(=O)[C@H](CCC(=O)O)NC(C)=O)C(=O)N[C@H](C=O)CC(=O)O,i
O=c1c2ccccc2n2c(SCc3cccc(F)c3)nnc2n1CCc1ccccc1,i
CC(C)=C1CC2[C@](C)(CC[C@@H](OC(=O)C3(C)OC3C)[C@@]2(C)O)CC1=O (some centres undefined),?
CCOc1ccc(CN2C(=O)c3nc4ccccc4n3CC2(C)C(=O)NC2CCC(C)CC2)cc1 (centres undefined),i
Fc1cccc(CN2CCO[C@@H](COc3ccccn3)[C@@H]2c2ccccc2)c1,i
FC(F)(F)c1ccc(N2C3CCC2CN(Cc2ccc(-c4ccccc4)cc2)C3)cc1,i
C=CCC1=C[C@]2(OC)[C@H](C)[C@@H](c3ccc(OC)c(OC)c3)O[C@]2(OC)CC1=O,i
CN(CC1CCOCC1)C(=O)c1ccsc1,i
CC(=O)O[C@@H]1[C@H](O[C@@H]2O[C@H](CO)[C@@H](O)[C@H](O)[C@H]2O)[C@@H](O[C@@H]2O[C@@H](C)[C@H](O)[C@@H](O[C@@H]3O[C@H](CO)[C@@H](O)[C@H](O)[C@H]3O)[C@H]2O)[C@H](OC(=O)C23CCC4(C)C(=CCC5C6(C)CC(O)C(O[C@@H]7O[C@H](C(=O)O)[C@@H](O)[C@H](O)[C@H]7O)C(C)(C(=O)O)C6CCC54C)C2CC(C)(C)CC3O)O[C@@H]1C (some centres undefined),i
CC1(C(=O)NC2CCCC2)Cn2c(ccc2-c2ccco2)C(=O)N1c1ccc2c(c1)OCCO2 (centres undefined),i
Cc1c(NC(=O)c2ccc(C(C)(C)C)cc2)cccc1-c1cn(C)c(=O)c(Nc2ccc(C(=O)N3CCOCC3)cc2)n1,i
CCC(C)/C=C(C)/C=C/C1=CC2=CC(=O)C(C)(O)C(OC(C)=O)C2CO1 (centres undefined),i
CCC(C)NC(=O)c1ccc2c(=O)n(C)c3nn(Cc4ccc(F)cc4Cl)c(=O)n3c2c1 (centres undefined),i
CC(C)OCCCN1C(=O)c2ccc(-c3ccco3)n2CC1(C)C(=O)NC1CCCCCCC1 (centres undefined),i
CN1C(=O)c2cc(C(=O)NCc3ccco3)nn2CC1(C)C(=O)NCc1ccc(F)cc1 (centres undefined),i
Cc1ccc(NS(=O)(=O)c2ccc3[nH]c4c(c3c2)CCCC4)cc1C,i
CC1(C(=O)NC2CCCCC2)Cc2ccccc2C(=O)N1Cc1cccs1 (centres undefined),i
COc1c2c(nc3occc13)C(CC=C(C)C)(OC)C(O)CC2 (centres undefined),i
O=C(Nc1ccccc1F)N1Cc2c(sc3c2CCCC3)-n2cccc2C1c1cccc(F)c1 (centres undefined),i
COc1ccc(CCC(=O)c2c(O)cc(O)cc2O[C@@H]2O[C@H](CO)[C@@H](O)[C@H](O)[C@H]2O)cc1,?
Cc1noc(C)c1CN1CCC2(CC1)C(C(=O)O)CC(=O)N2C (centres undefined),i
COc1ccc2cc3n(c2c1)CC(C)(C(=O)NC1CCCCC1)N(CCN1CCCC1)C3=O (centres undefined),i
CC(C)(C)OC(=O)N1CC(NCc2cccc(F)c2F)C1,i
O=C(Cc1ccsc1)NCC1CCCCC(=O)N1 (centres undefined),i
CCS(=O)(=O)N1CCC2(CC1)CN(c1cccc(F)c1)C2c1ccccc1 (centres undefined),i
Cc1cnc(Nc2ccc(OCCN3CCCC3)cc2)nc1Nc1cccc(S(=O)(=O)NC(C)(C)C)c1,+!
Cc1cc(C)cc(-c2ccc(CN3CCCC(N[S+](C)(=O)[O-])C3)cc2)c1 (centres undefined),i
Cn1c(=O)n(C)c2cc(S(=O)(=O)N3CCN(c4ccccc4F)CC3)ccc21,i
C=C(C)COc1ccc(C(=O)N2CCN3C(=O)CN(C)C(=O)C3C2)cc1 (centres undefined),i
COc1ccc(C(=O)CC2(O)C(=O)Nc3c(Cl)ccc(Cl)c32)cc1 (centres undefined),i
CC1(C(=O)NC2CCCCCC2)Cn2nc(-c3ccco3)cc2C(=O)N1Cc1ccc2c(c1)OCO2 (centres undefined),i
CCCc1nc(CN(CC)C(=O)c2ccc(NC(=O)C3CCC3)cc2)no1,i
Cc1ccc(Nc2ccn3c(=O)n(CC(=O)Nc4cc(F)ccc4C)nc3n2)cc1,i
COc1ccccc1CN[C@H]1CC(C)(C)[C@@H]2C[C@@](C)(O)CC[C@]12CCC(=O)NCCc1c[nH]c2ccccc12,?
COc1ccccc1CNC(=O)C1(C)Cn2c(cc3ccccc32)C(=O)N1CCc1ccccc1 (centres undefined),i
O[C@@H]1C[C@@H](c2nc(-c3ccccn3)no2)N(Cc2cc3ccccc3o2)C1,i
CN(C)C[C@H]1C[C@@H](CO)CN(C(=O)c2csc(Cc3ccccc3)n2)C1,i
O=S(=O)(Nc1ccccc1N1CCCCC1)c1ccc(Cl)s1,i
Cc1csc(NC(=O)c2sc3nc4c(c(C(F)(F)F)c3c2N)CCC4)n1,i
CCC(C)NC(=O)c1ccc2c(=O)n(C)c3n[nH]c(=O)n3c2c1 (centres undefined),i
CC(C)Cc1cc(CC2(NC3CCOCC3)COC2)no1,i

# Five compounds picked at random from the list so far, as already listed:
SMILES,Methyltransferases
CCC(C)NC(=O)c1ccc2c(=O)n(C)c3nn(Cc4ccc(F)cc4Cl)c(=O)n3c2c1 (centres undefined),i
CC1(C(=O)NC2CCCC2)Cn2c(ccc2-c2ccco2)C(=O)N1c1ccc2c(c1)OCCO2 (centres undefined),i
C=CCC1=C[C@]2(OC)[C@H](C)[C@@H](c3ccc(OC)c(OC)c3)O[C@]2(OC)CC1=O,i
CN1C(=O)c2cc(C(=O)NCc3ccco3)nn2CC1(C)C(=O)NCc1ccc(F)cc1 (centres undefined),i
Cc1c(NC(=O)c2ccc(C(C)(C)C)cc2)cccc1-c1cn(C)c(=O)c(Nc2ccc(C(=O)N3CCOCC3)cc2)n1,i

# Next section:
SMILES,Methyltransferases
CCc1ccc(-c2cc3n(n2)CC(C)(C(=O)NC2CCCCC2)N(CCN(CC)CC)C3=O)cc1 (centres undefined),i
COc1ccccc1CNC(=O)C1(C)Cn2nc(-c3ccccc3)cc2C(=O)N1c1ccc(Cl)cc1C (centres undefined),i
CC1CCCN(c2ncnc3c2CN(c2cccnc2)C(=O)CN3C)C1 (centres undefined),i
COc1ccc(OCC(=O)N2CCN(c3cc(-c4ccccc4)[nH]n3)CC2)cc1,i
COc1ccc2cc3n(c2c1)CC(C)(C(=O)NCC1CCCO1)N(CCc1ccccc1)C3=O (centres undefined),i
COc1cccc(CN2C(=O)CCCCC2C(=O)NC2CCS(=O)(=O)C2)c1 (centres undefined),i
COc1cc(O)cc(C)c1C(=O)OC1C(CO)OC(OC2C(O)C(O)C(O)C(O)C2O)C(O)C1O (centres undefined),i
COC[C@H]1CCCN1c1nc(CCN)nc2sc(C)c(C)c12,i
CN(C)C(=O)c1n[nH]c2c1CN(C(=O)c1ccccc1Br)CC2,i
CCCn1c(=O)c2ccc(Cl)cc2n2c(=O)n(CC(=O)NCc3ccc(Cl)cc3)nc12,i
Cn1cnc(-c2nccc3c(=O)[nH]c(OCCCC(F)(F)F)nc23)c1,?
CCCN1C(=O)c2cc3occc3n2CC1(C)C(=O)NC1CCCCCCC1 (centres undefined),i
O=C1CCc2cc(S(=O)(=O)Nc3cccc(Cl)c3)ccc2N1,?
COc1ccccc1C(=O)Nc1cc2c(cc1N1CCCC1)n(C)c(=O)n2C,?
CC(C)(O)/C=C/C1=CC(=O)[C@@](C)(O)C[C@H]1O,i
CCn1c2ccccc2c2cc(CNC)ccc21,?
CCC1COCCN1C(=O)c1coc(COc2ccc3c(c2)OCO3)n1 (centres undefined),i
CC1CCCCC1NC(=O)C1(C)Cn2c(ccc2-c2ccco2)C(=O)N1Cc1ccccc1F (centres undefined),i
C[C@H](C(=O)N1Cc2ccccc2CC2(CCN(Cc3ccncc3)C2)C1)c1ccccc1 (some centres undefined),i
Cc1ccc(C(=O)Cn2nc3n(C(C)C)c(=O)c4ccc(C(=O)NC5CCCCC5)cc4n3c2=O)cc1,i
CCCn1c(=O)c2cc(F)ccc2n2c(SCC(=O)Nc3cccc(OC)c3)nnc12,i
Cc1ccccc1N1C(=O)c2cc3sccc3n2CC1(C)C(=O)NC1CCCCC1 (centres undefined),i
Cc1nc2c3ccccc3n3c(CCCC(=O)N4CCN(c5cccc(C)c5C)CC4)nnc3n2n1,i
CCOc1ccc(CCN2C(=O)c3ccc(-c4ccco4)n3CC2(C)C(=O)NC2CCCCC2)cc1 (centres undefined),i
CC1CCC(NC(=O)C2(C)Cn3c(cc4occc43)C(=O)N2Cc2ccc(Cl)cc2)CC1 (centres undefined),i
C=CCNc1nc(CC)nc2c1CCN(C(=O)c1cn(C)nc1C)CC2,i
CN1C(=O)c2cc(C(=O)NCc3cccs3)nn2CC1(C)C(=O)NCc1ccc(F)cc1 (centres undefined),i
CC(C)Cn1c(=O)c2ccccc2n2c(CCC(=O)Nc3ccc(F)cc3)nnc12,i
CCCCc1nn(CC(=O)N2CCOC(c3ccccc3)C2)c(=O)n1CC (centres undefined),i
CCNC(=O)N1CCC(Oc2ncccc2C(=O)N2CCCCC2)C1 (centres undefined),i

# Arranged by heavy-atom count (falling): some entries from above
SMILES,Methyltransferases
Cc1ccc(C(=O)Cn2nc3n(C(C)C)c(=O)c4ccc(C(=O)NC5CCCCC5)cc4n3c2=O)cc1,i
CC1CCCCC1NC(=O)C1(C)Cn2c(ccc2-c2ccco2)C(=O)N1Cc1ccccc1F (centres undefined),i
CN1C(=O)c2cc(C(=O)NCc3cccs3)nn2CC1(C)C(=O)NCc1ccc(F)cc1 (centres undefined),i
CCn1c2ccccc2c2cc(CNC)ccc21,?

# Next section
SMILES,Methyltransferases
CC1(C(=O)NC2CCCCC2)Cn2c(ccc2-c2ccco2)C(=O)N1Cc1cccc(Cl)c1 (centres undefined),i
COc1ccc(CNC(=O)c2cc3n(n2)CC(C)(C(=O)NC2CCCCCC2)N(C)C3=O)cc1OC (centres undefined),i
COc1ccc(OCC(O)CN2CCC(=O)N(CC3CC3)Cc3cc(OC)ccc32)cc1 (centres undefined),i
CC1(C(=O)Nc2ccccc2)CN(Cc2ccccc2)Cc2ccc(N3CCOCC3)nc21 (centres undefined),i
Cc1nnc([C@H]2CCN(C3CCN(C)CC3)C2)o1,i
COc1cccc(CNS(=O)(=O)c2cc3[nH]c(=O)[nH]c3cc2C)c1,i
COc1ccc(NC(=O)Cn2c(=O)oc3cc(S(=O)(=O)NCc4ccccc4)ccc32)cc1OC,i
Cc1cc(C)n(Cc2ccc(C(=O)N3CCCC(CO)CCNC(=O)CC3)o2)n1 (centres undefined),i
Cc1ccc(C)c(CNC(=O)c2ncn3c2C(=O)N(C2CC2)C(C)(C(=O)NCc2ccc(F)cc2)C3)c1 (centres undefined),i
CC1(C(=O)NC2CCCCCC2)Cn2nc(C3CC3)cc2C(=O)N1Cc1ccccc1Br (centres undefined),i
C(#Cc1cccc(CN2CCOCC2)c1)CCN1CCCCC1,i
O=C1Cc2c(-c3ccccc3OCc3ccccc3)n[nH]c2CN1CC1CCOCC1,i
COC[C@@H]1OC[C@@]2(C)C3CC[C@@H](O)[C@@H](CC(=O)N4CCCCC4)[C@]3(C)CC[C@H]2O1 (some centres undefined),i
c1ccc(OCCCCN2CCOCC2)c(CNC2CCNC2)c1 (centres undefined),i
CC(C)CCn1c(=O)c2ccc(C(=O)NC(C)C)cc2n2c(=O)n(Cc3ccccc3)nc12,i
COCCN1CC(CO)C2(CCN(Cc3ccc(C#N)cc3)CC2)C1 (centres undefined),i

# Bioassay records: PubChem BioAssay, National Center for Advancing Translational Sciences (NCATS)

# A portion of the library; the hit share may differ from the screen's.
